Compound activity deposited in PubChem by several laboratories.
Calb FLC: C. albicans growth inhibition with fluconazole, primary screen, CaCi-2 strain, Alamar Blue fluorescence; C. albicans CaCi-2 (fluconazole-resistant clinical isolate) + fluconazole, 48 h; growth inhibition, % (no concentration beside the values); hit rate 0.57% among 300,000; AID 1979, 2009;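 active = most replicates above 75%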;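 also: all wells also contain fluconazole at 8 µg/ml as a sub-toxic cotreatment; 0% = median of DMSO wells and 100% = median of geldanamycin control wells; wells of about 8 µL received 7.5 nL stock; the first replicate is given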
ALR H2O2 inh: inhibitors of human ALR sulfhydryl oxidase, primary screen, biochemical, H2O2 detection, HRP-luminol luminescence, single point; purified ALR, DTT oxidation; hit rate 3.8% among 290,000; FAD-linked sulfhydryl oxidase ALR (Homo sapiens), P55789; inhibition, % (concentration not given with the values);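 active = mean and each replicate at 75% or more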;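 also: stock transfer was 7.5 nL into about 7.5 µL; 0% = neutral wells and 100% = wells with inactivated enzyme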
Target sequence (P55789 whole entry, looked up): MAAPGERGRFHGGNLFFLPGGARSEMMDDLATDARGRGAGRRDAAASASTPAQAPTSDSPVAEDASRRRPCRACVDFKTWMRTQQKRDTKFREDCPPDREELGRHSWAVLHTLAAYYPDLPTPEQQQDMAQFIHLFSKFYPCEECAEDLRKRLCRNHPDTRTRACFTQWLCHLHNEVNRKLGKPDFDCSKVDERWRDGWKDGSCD
Beta2AR agonist: beta2AR agonists driving receptor internalization, primary screen, cell-based, FAP fluorogen, flow cytometry | response, % (test concentration not listed) | AID 504454, 2011 | Am2.2-beta2AR cells; reference of the scale not given here | Beta-2 adrenergic receptor (Homo sapiens), P07550 | hit rate 0.43% among 340,000;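 active = response above a set limit, near 3 SD of response in nonfluorescent compounds, cut at about 42% in these data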;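 also: stock transfer was 100 nL into about 11 µL; a reference agonist was the positive control; negative values mostly stem from fluorescent compounds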
Target sequence (P07550 whole entry, looked up): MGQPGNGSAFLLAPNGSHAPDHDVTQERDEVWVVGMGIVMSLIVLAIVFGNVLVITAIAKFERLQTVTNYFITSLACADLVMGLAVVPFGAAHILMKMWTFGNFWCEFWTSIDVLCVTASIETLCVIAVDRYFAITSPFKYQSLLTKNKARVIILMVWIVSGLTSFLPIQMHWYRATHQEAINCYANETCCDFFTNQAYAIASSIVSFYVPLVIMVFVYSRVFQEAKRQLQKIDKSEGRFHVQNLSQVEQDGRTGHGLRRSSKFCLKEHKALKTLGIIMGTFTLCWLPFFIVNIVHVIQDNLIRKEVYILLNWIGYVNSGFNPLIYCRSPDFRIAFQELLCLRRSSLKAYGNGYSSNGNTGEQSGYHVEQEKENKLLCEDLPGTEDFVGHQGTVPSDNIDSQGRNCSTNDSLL
LANA-H2A inh: blockers of LANA interaction with H2A/H2B – biochemical, FP readout, HTS, primary screen; inhibition, % (concentration not given with the values); cell-free LANA-H2A/H2B peptide, fluorescence polarization; AID 2629, 2010; hit rate 0.6% among 320,000; in the data active = inhibition mostly above about 10%, no sharp cut-off; inactive = mostly below about 6.7%;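 also: stock transfer was 7.5 nL into about 10 µL; 0% = median of vehicle wells and 100% = median of positive control wells; one replicate is shown; the record names a cut of 25% in any replicate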
T cruzi inh: inhibitors of intracellular T. cruzi growth, primary screen, luminescence, NIH3T3 host cells; T. cruzi beta-gal in NIH3T3, 90 h; inhibition, % (test concentration not listed); hit rate 1.4% among 300,000; AID 1885, 2009;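 active = mean inhibition across valid replicates above about 55%, limit read from the data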;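 also: signal also drops with host cell toxicity which is not excluded here; 0% = plate median of DMSO wells and 100% = zero luminescence signal; higher percent means less beta-gal luminescence so fewer parasites; stock transfer was 50 nL into about 50 µL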
Ecoli rRNA inh: reduced GFP signal of wild-type E. coli, primary screen, bacterial rRNA inhibitor project, GFP/RFP fluorescence, OD600, single point | E. coli WT GFP vs humanized-ribosome RFP mutants, 24 h; active compounds read low; DMSO median 0, no signal -100 | GFP signal change (wild-type ribosome), % (no concentration beside the values) | hit rate 1.6% among 350,000 | AID 720706, 2013;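 active = significant combined selectivity score with lowered wild-type GFP, culture density cut under 30%, mutant RFP and density less affected; inactive = any of these conditions unmet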; also: one replicate is shown; some compounds called inactive have numbers as strong as hits
Beta cell apopt: inhibitors of cytokine-induced beta cell apoptosis, primary screen, luminescence. hit rate 0.8% among 300,000. protection from apoptosis, % (test concentration not listed). INS-1E cytokine-induced death, ATP luminescence, 48 h; percent of positive-control rescue, neutral wells zero;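 active = all replicates at 75% or more, or half of them and the mean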;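 also: 0% = cytokine-treated negative control wells and 100% = positive control rescue; higher means more ATP so stronger rescue from cytokine killing; wells of about 40 µL received 100 nL stock; the first replicate is given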
A1 inh: caspase 3/7 activation in MEF A1-2A-BIM cells, primary screen, A1 inhibitor project, cell-based, luminescence, HTS. Caspase-Glo 3/7 luminescence, 3 h; percent of clofoctol response, vehicle zero. caspase activation, % (concentration not given with the values). hit rate 0.066% among 330,000;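 active = over half of replicate activation scores above 10%, or exactly half above 10 with the replicate mean above 10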;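 also: wells of about 30 µL received 50 nL stock; many hits fall short of the cut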
Ecoli rRNA inh OD600: recorded beside Ecoli rRNA inh, whose call it bears; OD600 change, %; measured here: OD600 growth;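 optical density of the mix in the first replicate; 0 = DMSO median and -100 = no signal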
Ecoli rRNA inh RFP: recorded beside Ecoli rRNA inh, whose call it bears; RFP signal change, %; measured here: RFP humanized mutant strains;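 first replicate; 0 = DMSO median and -100 = no signal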
Active calls of the source: *; . = not tested or not shown; & = joins results of further samples. Not all compounds are listed; the hit share may differ from the screen's.

SMILES	Calb FLC	ALR H2O2 inh	Beta2AR agonist	LANA-H2A inh	T cruzi inh	Ecoli rRNA inh	Ecoli rRNA inh OD600	Ecoli rRNA inh RFP	Beta cell apopt	A1 inh
CC1CCCCN1C(=O)CN1CCC(c2nc3ccc(Cl)cc3[nH]2)CC1 (configuration not stated)	-19	3	-5	-1.1	9	7	-1	0.0	3	1.5
CN(C(=O)CC1C(=O)NCCN1Cc1ccc(F)cc1Cl)C1CCCCC1 (configuration not stated)	-7	0	14	1.8	3	0	5	-0.9	0	0.0
O=C(N=C1N=C2C=CC=CN2Cc2ccccc21)c1ccc(S(=O)(=O)N2CCCC2)cc1	-6	0	-6	7.2	-13	8	1	0.2	9	-3.4
COc1ccc(NC(=O)C(C)N(c2ccc(C)cc2)S(C)(=O)=O)cc1 (configuration not stated)	25	8	4	7.6	-10	.	.	.	3	-0.5
O=C(c1cccs1)N1CCN(S(=O)(=O)Cc2ccccc2)CC1	2	-6	-2	1.1	7	.	.	.	-2	-1.1
O=C(/C=C/c1cccs1)Nc1nncs1	16	.	22	15*	-22	10	-4	-0.8	-4	-2.3
Cc1ccc(NS(=O)(=O)c2cccc(C(=O)N/N=C/c3c(C)nn(-c4ccccc4)c3N3CCCC3)c2)c(C)c1	6	-21	16	-1.5	21	.	.	.	3	0.5
COc1ccc(/C=C(/C#N)S(=O)(=O)c2ccc(C)cc2)cc1	-6	-12	-20	-4.6	-4	.	.	.	-5	.
COc1cc(CN(C)CCc2ccccc2)ccc1OCc1ccccc1	-26	-1	-4	-3.1	63*	.	.	.	6	0.6
C=CCOc1c(CNc2ncn[nH]2)cccc1OCC	-4	-8	-1	-0.9	6	.	.	.	-7	-0.3
Cc1nc2sc(C(c3ccc(Cl)cc3)N3CC(C)OC(C)C3)c(O)n2n1 (configuration not stated)	3	-2	3	-0.3	7	.	.	.	-5	-0.2
C[C@@H]1CN([C@@H](C)CO)C(=O)c2cccc(NC(=O)Nc3ccccc3)c2O[C@H]1CN(C)C(=O)Nc1cccc2ccccc12	.	-16	7	7.0	.	0&-3	0&2	1.8&9.8	1	0.4
Cc1ccc(/C=C2/Sc3ccc(C(=O)NCc4ccccn4)cc3NC2=O)cc1	-2	-12	7	0.5	-30	1	-2	0.3	1	-0.3
COC(=O)NNC(=S)NCc1ccccc1	-8	41	6	2.7	-5	.	.	.	-9	-0.6
CN(CC(=O)Nc1cccc(F)c1)C(=O)C1CC(=O)N(Cc2ccccc2)C1 (configuration not stated)	-9	-10	-1	-6.0	-7	12	15	5.2	1	-0.4
CC1CCN(c2c(NCc3ccc(C(=O)NCc4ccco4)cc3)c(=O)c2=O)CC1	-5	-7	-10	0.1	-13	4	-1	-1.0	.	0.3
Clc1cccc(CN2CCCCCCC2)c1Cl	3	.	-4	-5.7	2	4	7	-1.2	-1	0.2
Cc1ccc2nc(Nc3nc(CSc4nnc(C)s4)cc(=O)[nH]3)nc(C)c2c1	11	.	-24	-1.1	37	16	0	1.5	9	0.2
CCn1c(SCC(=O)N/N=C(\C)c2ccncc2)nnc1-c1ccc(C)cc1	1	32	-2	0.9	10	-7	-1	2.1	-3	-0.2
O=C(COC(=O)/C=C/c1ccccc1)NNC(=O)c1ccc([N+](=O)[O-])cc1	51	-1	4	1.1	-10	6	10	0.2	.	0.3
Cc1cc(C)c(OCC(=O)Nc2ccc(S(=O)(=O)N3CCOCC3)cc2)c(C)c1	4	-1	-4	-0.9	0	-11	-7	2.2	-4	0.4
CC(C)(C)C(=O)Nc1ccc(Sc2ccc([N+](=O)[O-])cc2)cc1	28	.	29	.	24	1	-15	-3.7	1	0.1
O=C(O)c1ccccc1-c1ccccc1C(=O)NCc1cccc(C(F)(F)F)c1	-1	-2	7	18*	-8	-20	-16	-1.6	0	-0.4
CN(C(=O)CCCN1C(=O)c2cccc3cccc(c23)C1=O)c1ccccc1	22	-1	10	-4.6	16	-1	-10	-3.7	10	0.0
C#CCOCCOCCOCCNc1nc(N2CCN(C(=O)CCCCCCCCCCNC(=O)[C@H](CCCCN)n3cc(CCO)nn3)CC2)nc(N2CCN(C(=O)CCCCCCCCCCNC(=O)[C@H](CCCCN)n3cc(CCCC(=O)O)nn3)CC2)n1	.	-13	32	-0.1	.	-40*	-26*	17*	-3	1.1
CCOc1cc(NC(=S)NC)c(OCC)cc1NC(=O)c1ccco1	-3	10	-14	-2.4	5	.	.	.	0	-0.8
COc1cccc(NC(=O)CN(c2ccc([N+](=O)[O-])cc2)S(=O)(=O)c2ccccc2)c1	-7	-6	-1	-1.7	-4	0	2	10	6	-1.1
CCOc1ccc(/C=C/C(=O)c2ccccc2)cc1OC	18	7	10	6.6	-4	.	.	.	2	-1.0
COC(=O)c1cccc(NC(=O)CCc2c(C)noc2C)c1	.	-2	7	2.1	.	0	13	-2.4	3	-0.8
CC1=C(C(=O)OC2CCCCC2)C(c2ccco2)C2=C(CC(C)(C)CC2=O)N1 (configuration not stated)	-12	.	-9	2.2	12	.	.	.	12	-2.4
Oc1ccccc1CNc1ccc2c(c1)OCCO2	-8	99*	4	-6.4	-5	6	15	0.3	2	1.4
CN(c1ccccc1)S(=O)(=O)c1cccc2ccccc12	13	.	-6	3.4	9	-25	-33	-8.5	-3	3.4
Cc1ccc(OCc2nc(-c3ccccc3)no2)cc1	-2	1	-5	3.8	-2	6	5	-4.8	-2	-2.1
CNC(=O)/C(C#N)=C/c1c(F)cccc1Cl	8	3	4	-1.0	-8	-4	-3	0.1	0	1.2
Cc1cc(C)c(NC(=O)C2CCCN2C)c(C)c1 (configuration not stated)	-13	-7	-3	2.9	2	.	.	.	-3	-0.5
COc1ccc(OC)c(S(=O)(=O)N2CCCC(C(=O)N3CCC(C(N)=O)CC3)C2)c1 (configuration not stated)	-4	-3	0	-1.6	-1	-1	2	0.9	.	-0.8
Cc1ccc(C)c(/C=N/NC(=S)NCCc2ccccc2)c1	-18	2	3	-3.2	-12	.	.	.	-7	0.0
O=C(CS(=O)(=O)Nc1ccc(F)cc1Cl)Nc1ccc(F)cc1Cl	79*	.	-1	0.2	-15	-29	-48	-9.7	.	1.5
CCOC(=O)c1ccc(NC(=S)N2CCN(CCO)CC2)cc1	-4	-6	-3	0.6	-15	4	8	-1.4	-2	1.2
CCCOc1ccc(C2C3=C(Nc4nc(N)[nH]c(=O)c42)c2ccccc2C3=O)cc1 (configuration not stated)	8	-31	-1	2.9	5	-1	-3	-2.2	-3	-0.6

11 entries from above, arranged by molar mass, descending.
SMILES	Calb FLC	ALR H2O2 inh	Beta2AR agonist	LANA-H2A inh	T cruzi inh	Ecoli rRNA inh	Ecoli rRNA inh OD600	Ecoli rRNA inh RFP	Beta cell apopt	A1 inh
COc1ccc(OC)c(S(=O)(=O)N2CCCC(C(=O)N3CCC(C(N)=O)CC3)C2)c1 (configuration not stated)	-4	-3	0	-1.6	-1	-1	2	0.9	.	-0.8
CCCOc1ccc(C2C3=C(Nc4nc(N)[nH]c(=O)c42)c2ccccc2C3=O)cc1 (configuration not stated)	8	-31	-1	2.9	5	-1	-3	-2.2	-3	-0.6
O=C(O)c1ccccc1-c1ccccc1C(=O)NCc1cccc(C(F)(F)F)c1	-1	-2	7	18*	-8	-20	-16	-1.6	0	-0.4
CN(C(=O)CCCN1C(=O)c2cccc3cccc(c23)C1=O)c1ccccc1	22	-1	10	-4.6	16	-1	-10	-3.7	10	0.0
CCOc1cc(NC(=S)NC)c(OCC)cc1NC(=O)c1ccco1	-3	10	-14	-2.4	5	.	.	.	0	-0.8
CCOC(=O)c1ccc(NC(=S)N2CCN(CCO)CC2)cc1	-4	-6	-3	0.6	-15	4	8	-1.4	-2	1.2
Cc1ccc(C)c(/C=N/NC(=S)NCCc2ccccc2)c1	-18	2	3	-3.2	-12	.	.	.	-7	0.0
CCOc1ccc(/C=C/C(=O)c2ccccc2)cc1OC	18	7	10	6.6	-4	.	.	.	2	-1.0
Cc1ccc(OCc2nc(-c3ccccc3)no2)cc1	-2	1	-5	3.8	-2	6	5	-4.8	-2	-2.1
Cc1cc(C)c(NC(=O)C2CCCN2C)c(C)c1 (configuration not stated)	-13	-7	-3	2.9	2	.	.	.	-3	-0.5
CNC(=O)/C(C#N)=C/c1c(F)cccc1Cl	8	3	4	-1.0	-8	-4	-3	0.1	0	1.2

Next entries:
SMILES	Calb FLC	ALR H2O2 inh	Beta2AR agonist	LANA-H2A inh	T cruzi inh	Ecoli rRNA inh	Ecoli rRNA inh OD600	Ecoli rRNA inh RFP	Beta cell apopt	A1 inh
Cc1ccc2oc(C(=O)N(C)Cc3ccon3)c(C)c2c1	-16	0	4	0.7	-4	3	3	2.1	0	-2.9
CN(C)c1ccc(N2C(=O)CSC2=S)cc1	-6	34	4	2.8	-1	4	0	30	-18	0.4
CCN(CC)c1ccc(/C=N/Nc2nc3ccccc3[nH]2)c(O)c1	98*	10	34	3.7	59*	.	.	.	122*	-0.2
CCN(CC)C(=O)Oc1ccc(Cl)c2cccnc12	-3	.	-6	-3.0	-2	-6	-5	-3.2	-1	1.8
Cc1ccc([N+](=O)[O-])cc1NC(=O)CN(C(=O)c1ccc(Cl)cc1)C1CCCCC1	16	9	-13	-1.5	17	.	.	.	6	0.6
CCOP(=O)(OCC)/C(C#N)=C/c1ccc(-c2ccc(F)cc2F)o1	13	4	7	-11	1	-31	-50	7.9	-1	0.8
COCCCNC(=S)N(Cc1ccccc1)Cc1ccccc1	4	-26	2	0.5	-8	.	.	.	-1	0.8
CC(C)NC(=O)C(=O)c1cn(C)c2ccccc12	16	1	-4	-1.5	18	-7	-2	-3.8	-4	1.1
Cc1cc(C)c(S(=O)(=O)N(C)CC(=O)NCc2ccccn2)c(C)c1	22	1	-1	1.5	-3	3	-12	-1.3	-2	0.0
N#Cc1cnn(Cc2ccccc2)c1/N=C/N1CCOCC1	26	4	-8	2.9	12	.	.	.	-4	0.5
Cn1c(N)c(C(=O)c2ccc(Cl)cc2)c(=O)n(C)c1=O	-7	-22	-4	-1.9	5	3	3	-1.6	-2	-0.1
COc1ccc(CNC(=O)C2=CCN(S(=O)(=O)c3ccc(C)cc3)CC2)cc1	-2	12	-3	0.8	-8	7	7	3.9	-7	-0.4
COc1ccc(NC(=O)/C(Cl)=C(/Cl)S(=O)Cc2ccccc2)cn1 (configuration not stated)	-2	-7	50*	-4.2	30	.	.	.	104*	-3.7
O=C(CSc1ccccc1F)NCC(c1cccs1)N1CCOCC1 (configuration not stated)	.	.	2	-5.4	.	4	-1	0.7	-4	0.7
COc1ccc(CCC(=O)Nc2cccc(Cl)c2)cc1	-5	3	1	-1.2	-4	.	.	.	-4	-0.1
